ALR inh: inhibitors of human sulfhydryl oxidase ALR; P55789; purified ALR, DTT oxidation, H2O2 HRP-luminol luminescence; inhibition, % (test concentration not listed); 290,000 tested, 3.8% active;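 active = mean and each replicate at 75% or more; inconclusive = only one of the two met; inactive = neither met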;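 note: stock transfer was 7.5 nL into about 7.5 µL; 0% = neutral wells and 100% = wells with inactivated enzyme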
Target sequence (P55789 whole entry, looked up): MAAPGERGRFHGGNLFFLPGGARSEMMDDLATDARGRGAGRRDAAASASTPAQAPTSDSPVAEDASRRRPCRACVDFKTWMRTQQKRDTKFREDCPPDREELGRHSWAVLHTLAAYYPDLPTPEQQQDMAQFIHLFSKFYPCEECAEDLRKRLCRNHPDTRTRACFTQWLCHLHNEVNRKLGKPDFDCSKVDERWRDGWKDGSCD
MLL AF4-AF9 inh: inhibitors of human MLL-AF4/AF9 interaction. P42568. AlphaScreen, biotin-AF4 peptide binding to FLAG-AF9. inhibition, % at 10 µM. 350,000 tested, 0.47% active;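 active = every replicate reaching a set inhibition limit, whatever the replicate mean, cut at about 25% in these data; inconclusive = mean inhibition reaches that limit but some replicates miss it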;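 note: 0% = plate neutral control median and 100% = total signal loss; the record names both 10 and 1 µM as test concentration; the first replicate is given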
Target sequence (P42568 whole entry, looked up): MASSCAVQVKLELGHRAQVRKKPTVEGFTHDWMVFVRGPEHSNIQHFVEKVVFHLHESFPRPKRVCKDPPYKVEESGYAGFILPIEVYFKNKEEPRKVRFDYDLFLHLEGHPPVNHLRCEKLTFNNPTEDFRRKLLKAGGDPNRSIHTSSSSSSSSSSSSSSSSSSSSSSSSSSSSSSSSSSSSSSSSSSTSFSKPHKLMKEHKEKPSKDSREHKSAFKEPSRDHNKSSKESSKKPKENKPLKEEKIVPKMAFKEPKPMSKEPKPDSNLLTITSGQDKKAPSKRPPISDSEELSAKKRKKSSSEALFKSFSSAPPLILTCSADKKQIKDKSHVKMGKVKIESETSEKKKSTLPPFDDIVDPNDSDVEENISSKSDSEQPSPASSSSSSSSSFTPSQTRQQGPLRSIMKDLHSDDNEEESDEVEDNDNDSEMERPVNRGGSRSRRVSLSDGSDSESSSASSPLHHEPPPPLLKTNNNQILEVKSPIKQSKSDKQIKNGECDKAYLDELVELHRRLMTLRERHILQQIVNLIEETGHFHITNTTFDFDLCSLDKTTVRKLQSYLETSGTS
HNF4A DNA FP: change in binding of human HNF4 alpha to DNA | P41235 | HNF4a-FITC DNA binding, fluorescence polarization, 1 h | activity change, % at 10 µM | 360,000 tested, 0.3% active | AID 1224865; in the data active = activity change above about 30%, passing the limit was not always enough;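 note: controls were the assay level and a saturating level of protein; the project sought stronger binding though the title names inhibitors; some compounds called inactive have numbers as strong as hits; positive values seem to mean higher polarization but the record does not say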
rRNA inh HTS: inhibits bacterial ribosomal RNA function over humanized ribosomes. GFP signal change (wild-type ribosome), % (concentration not given with the values). 350,000 tested, 1.6% active. E. coli WT GFP vs humanized-ribosome RFP mutants, fluorescence, 24 h; active compounds read low; DMSO median 0, no signal -100. AID 720706;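 active = significant combined selectivity score with lowered wild-type GFP, culture density cut under 30%, mutant RFP and density less affected; inactive = any of these conditions unmet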; note: one replicate is shown; some compounds called inactive have numbers as strong as hits
Vif TR-FRET: HIV-1 Vif–A3G interaction blockers – biochemical, TR-FRET, GST-Vif 1-94, biotin-A3G peptide, dose response retest, primary screen (AID 1117319); TR-FRET GST-Vif / biotin-A3G peptide binding; higher % means a stronger effect; test concentration not given here; strong numbers were not always called active; one-dose inhibition, %; IC50 in µM for titrated hits; 260,000 tested, 0.57% active;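 active = above the screen mean plus three standard deviations and confirmed in dose response; inconclusive = results disagree or hit not tested in dose response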;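 note: Vif residues 1-94 fused to GST binding biotinylated APOBEC3G peptide 110-148; 0% = full assay without inhibitor and 100% = GST in place of GST-Vif; retest series ran down from 100 µM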
FGF22 binding: binders of recombinant human FGF22 by thermal shift; Q9HCT0; SYPRO orange fluorescence; percent of sucrose octasulfate shift, DMSO zero; calls only at 9.99 µM; 340,000 tested, 1.5% active;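 active = melting point raised past a set limit in the mean and every replicate; inconclusive = no clear call; three in four hits are not shown here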
Target sequence (Q9HCT0 whole entry, looked up): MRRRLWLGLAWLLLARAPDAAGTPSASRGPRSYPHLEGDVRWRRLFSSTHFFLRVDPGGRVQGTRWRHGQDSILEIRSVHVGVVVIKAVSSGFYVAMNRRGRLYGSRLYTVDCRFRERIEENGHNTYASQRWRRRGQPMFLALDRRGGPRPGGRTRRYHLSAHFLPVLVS
Ecoli growth: inhibitors of Escherichia coli growth; OD600 absorbance (test concentration not listed); 330,000 tested, 0.21% active; AID 1053175; OD600, 23 h; active compounds read low;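 active = OD600 absorbance below the run mean of sample wells minus 3.6 SD, in any replicate, cut at about 0.56 in these data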;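 note: stock transfer was 300 nL into about 60 µL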
rRNA inh HTS OD600: second read-out of rRNA inh HTS, no call of its own (marks repeat the call); OD600 change, %; measured here: OD600 growth;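 optical density of the mix in the first replicate; 0 = DMSO median and -100 = no signal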
rRNA inh HTS RFP: second read-out of rRNA inh HTS, no call of its own (marks repeat the call); RFP signal change, %; measured here: RFP humanized mutant strains;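 first replicate; 0 = DMSO median and -100 = no signal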
* marks the source's active call; other numbers are inactive results; i = inactive; ? = inconclusive; / = not tested or not shown; & = joins results of further samples.

SMILES	ALR inh	MLL AF4-AF9 inh	HNF4A DNA FP	rRNA inh HTS	rRNA inh HTS OD600	rRNA inh HTS RFP	Vif TR-FRET	FGF22 binding	Ecoli growth
COc1ccc(/C=C2\CCCC3C2=NN(C(=O)c2scnc2C)C3c2ccc(OC)cc2)cc1 (centres undefined)	-8	12	-2.6	2	-2	-4.7	1%	i	0.77
CO[C@H]1CN(C)C(=O)c2ccc(NS(=O)(=O)c3c(C)noc3C)cc2OC[C@H](C)NC[C@H]1C	/	-4.2	/	3	8	-1.8	/	i	/
COc1ccc(NC(=O)N(C)C[C@H]2Oc3c(NC(=O)C4CC4)cccc3C(=O)N([C@H](C)CO)C[C@@H]2C)cc1	-3	-2.3&-0.8	-1.1	3&9	11&13	-1.3&8.0	/	i	0.74
CCNS(=O)(=O)c1cc(S(C)(=O)=O)ccc1Cl	-5	/	-0.7	/	/	/	9%	/	0.66
CCOc1ccc(C(=O)NC(Cc2ccccc2)C(=O)OC)cc1 (centres undefined)	6	/	2.5	/	/	/	-15%	/	0.68
O=C(NCCCn1ccnc1)C(=O)NCC1OCCCN1S(=O)(=O)c1ccccc1 (centres undefined)	-14	/	0.4	/	/	/	-12%	/	0.69
Cc1ccc(-n2c(CSc3nc(C)cc(C)n3)n[nH]c2=S)cc1	8	-3.3	-4.8	1	-5	3.5	11%	i	0.66
CC(=O)Nc1cccc(OCCCNS(=O)(=O)c2ccc(F)cc2)c1	-7	-3.0	-0.8	-3	-5	1.6	/	i	0.66
CCSc1nnc(N)s1	-3	/	-0.4	/	/	/	20%	/	0.66
CCc1ccc(NC(=O)CSc2nc(=O)n(CCCN3CCOCC3)c3c2CCC3)cc1	98*	-7.8	-2.1	0	7	2.6	-3%	i	0.71
COc1ccc(-c2cnc3c(c2)C(=O)N([C@@H](C)CO)C[C@H](C)[C@H](CN(C)C(=O)C2CCOCC2)O3)cc1	/	-2.8	/	2	5	-3.3	/	i	/
Cc1c(Cl)cccc1NC(=O)Nc1cc(C(C)(C)C)on1	/	-13	0.4	-9	-6	1.7	-1%	i	0.61
CC(C)(C)[C@@H]1C=C(C(=O)N2CCOCC2)O[C@H](OCc2ccc(CO)cc2)C1	4	-2.2&4.3	0.2	10	14	-2.0	-9%	i	/
CN(C)c1ccc(Cl)cc1N	-5	-1.2	1.9	/	/	/	?	/	0.7
O=C(c1ccc(CNS(=O)(=O)c2cccc(Cl)c2)cc1)N1CCCC1	-4	-1.2	-1.9	-5	-10	4.9	-4%	i	0.69
O=C(NCC[C@H]1CC[C@H](NC(=O)c2cnccn2)[C@@H](CO)O1)Nc1ccc(F)cc1	/	13	/	-4	-4	2.2	/	i	/
Cc1cc(=O)oc2c3c(cc(OCC(=O)Nc4ccc(CCO)cc4)c12)OC(C)(C)CC3	-29	-1.7	2.3	-31	-35	-6.4	/	i	0.78
COc1ccc2c3c(n(C)c2c1)[C@@H](CO)N(C(=O)Nc1ccc(F)cc1)CC31CCN(C)CC1	/	-1.7	/	1	2	-0.7	/	i	/
CCN(CC(=O)NCc1cccs1)CC(=O)Nc1ccccc1C	0	2.1	2.5	6	8	-2.2	-7%	i	0.68
CSc1ncccc1C(=O)OCC(=O)C(C)(C)C	2	-0.1	-3.3	8	2	-1.1	-6%	i	0.66
CN[C@H]1C[C@H]2c3cc(N4CCN(C)CC4)ccc3CCN2C(=O)[C@H]1[C@H](C)O	/	1.6	-4.5	/	/	/	/	i	/
CN1[C@@H]2c3cccc(=O)n3C[C@H]1[C@H](CO)[C@H]2C(=O)NCC1CCCCC1	/	-1.3	/	4	14	0.1	/	i	/
NC(=O)c1ccc(NC(=O)CN2C(=O)NC(c3ccccc3)(c3ccccc3)C2=O)cc1	/	3.1	2.3	4	-6	1.7	-2%	i	0.63
COc1ccc(NC(=O)N2C[C@H](O)COC[C@H]3O[C@H](CC(=O)N4CCN(C)CC4)CC[C@@H]32)cc1	/	-2.8	/	3	0	-3.3	/	i	/
C=CCn1c(=NC(=O)C2COc3ccccc3O2)sc2cccc(OC)c21 (centres undefined)	8	-4.4	1.9	-15	-4	5.6	1%	i	0.7
SMILES	ALR inh	MLL AF4-AF9 inh	HNF4A DNA FP	rRNA inh HTS	rRNA inh HTS OD600	rRNA inh HTS RFP	Vif TR-FRET	FGF22 binding	Ecoli growth
COc1ccc(S(=O)(=O)Nc2ccc3c(c2)C(=O)N([C@H](C)CO)C[C@H](C)[C@@H](CN(C)S(=O)(=O)c2ccccc2)OCCCC[C@@H](C)O3)cc1	/	1.1	/	1	-1	-1.3	/	i	/
O=C(c1ccc(S(=O)(=O)N2CCCC2)cc1)N1CCN(c2ccccc2F)CC1	-21	-4.3	0.6	2	4	1.7	-3%	i	0.69
CCCCCn1c(CN2CCCCC2CC)nc2c1c(=O)n(C)c(=O)n2C (centres undefined)	-5	4.1	-2.5	1	15	-2.1	/	i	0.79
C[C@@H]1CCCCO[C@@H](CN(C)S(=O)(=O)c2ccc(Cl)cc2)[C@@H](C)CN([C@@H](C)CO)C(=O)c2cc(NS(=O)(=O)c3cccs3)ccc2O1	/	-0.1	/	1	7	-0.9	/	i	/
Cc1cc2nncn2c2ccccc12	-8	/	2.8	/	/	/	8%	/	0.66
CN(C)c1nc(NCc2ccccc2)nc(N/N=C/c2cccc(Br)c2)n1	-3	2.9	4.8	-6	-7	0.1	-1%	i	/
COc1ccc(NC(=O)Nc2ccc3c(c2)C(=O)N([C@H](C)CO)C[C@@H](C)[C@H](CN(C)Cc2ccc(Cl)c(Cl)c2)O3)cc1	/	2.3	/	-1	-1	1.5	/	i	/
CC(C)NC(=O)Nc1ccc2c(c1)C(=O)N([C@@H](C)CO)C[C@H](C)[C@H](CN(C)S(=O)(=O)c1ccc(Cl)cc1)O2	/	-0.4	/	-1	-7	-1.9	/	i	/
Cc1cc(NC(=O)c2ccc(Br)c(S(=O)(=O)N3CCCC3)c2)no1	/	/	1.3	/	/	/	?	/	0.7
COC(=O)NC1(C(F)(F)F)NC(=O)N(C2CCCCC2)C1=O (centres undefined)	1	/	-0.9	/	/	/	2%	/	0.75
COc1ccc(CCNS(=O)(=O)c2cn(C)cn2)cc1OC	-5	-1.8	4.4	8	11	-0.9	/	i	0.68
CCc1cccc(NC(=O)C2CCCN(c3cnccn3)C2)c1 (centres undefined)	16	1.8	-1.7	-6	-31	-4.2	/	i	0.71
COc1ccc(-c2c(C)nn3c(N)c(-c4ccccc4)cnc23)cc1OC	17	-6.8	1.8	8	14	4.8	6%	i	0.71
CC(C)(C)C1CCc2onc(C(=O)Nc3cccc(O)c3)c2C1 (centres undefined)	/	10	0.4	10	6	-1.1	0%	i	0.66
C[C@H](NC(=O)c1nc[nH]c1C(=O)N[C@@H](Cc1ccccc1)C(=O)OCc1ccccc1)c1ccccc1	23	-7.4	2.7	12	13	0.4	1%	i	/
CC(C)NC(=O)N(O)C1N(Cc2ccc3c(c2)OCO3)C(=S)SC1(C)C (centres undefined)	0	/	0.4	/	/	/	2%	/	0.69
Cc1csc(SCC(=O)NCc2cccc(Cl)c2)n1	-5	-1.2	-0.8	-7	1	2.9	/	i	0.64
CN(C)C(CNC(=O)c1ccc(NS(=O)(=O)c2cccc([N+](=O)[O-])c2)cc1)c1ccco1 (centres undefined)	-3	-0.3	3.4	-3	10	-4.5	/	i	0.68
COCCNC(=O)C1(C)CCCN(C(=O)c2ccc(-c3ccccc3)cc2)C1 (centres undefined)	/	2.6	5.2	-5	-1	0.4	/	i	/
C=CCc1ccc(OC)c(OC)c1	-4	-2.1	1.5	/	/	/	/	i	0.77
Cc1ccnc(NC(=O)C2CCN(S(=O)(=O)c3ccc4c(c3)CC(C)N4C(=O)C3CCC3)CC2)c1 (centres undefined)	-1	5.6	-1.1	-25	-27	-6.0	/	i	0.7
O=C(NC1CCN(S(=O)(=O)c2ccc(Cl)cc2)CC1)c1cccnc1	1	-20	3.7	7	15	0.8	/	i	0.68
N#Cc1c2c(c(-n3cnc4ccccc43)n3c1nc1ccccc13)CCC2	-9	/	0.2	/	/	/	8%	/	0.75
Cc1cc(Br)c2[nH]cc(CCNC(=O)c3ccco3)c2c1	7	3.3	1.6	-12	-35	-8.1	/	i	0.69
CC(C)c1onc(C(=O)NCCc2ccccc2)c1[N+](=O)[O-]	3	-0.7	2.4	1	-2	5.3	?	/	0.68

No new results follow: 3 of the compounds above.
SMILES	ALR inh	MLL AF4-AF9 inh	HNF4A DNA FP	rRNA inh HTS	rRNA inh HTS OD600	rRNA inh HTS RFP	Vif TR-FRET	FGF22 binding	Ecoli growth
COc1ccc(S(=O)(=O)Nc2ccc3c(c2)C(=O)N([C@H](C)CO)C[C@H](C)[C@@H](CN(C)S(=O)(=O)c2ccccc2)OCCCC[C@@H](C)O3)cc1	/	1.1	/	1	-1	-1.3	/	i	/
O=C(c1ccc(S(=O)(=O)N2CCCC2)cc1)N1CCN(c2ccccc2F)CC1	-21	-4.3	0.6	2	4	1.7	-3%	i	0.69
CCCCCn1c(CN2CCCCC2CC)nc2c1c(=O)n(C)c(=O)n2C (centres undefined)	-5	4.1	-2.5	1	15	-2.1	/	i	0.79

Next records follow.
SMILES	ALR inh	MLL AF4-AF9 inh	HNF4A DNA FP	rRNA inh HTS	rRNA inh HTS OD600	rRNA inh HTS RFP	Vif TR-FRET	FGF22 binding	Ecoli growth
c1csc(-c2csc(-c3cccs3)n2)c1	0	/	2.0	/	/	/	-19%	/	0.68
COCCn1c(=S)[nH]c2cc(C(=O)N3CC(C)CC(C)C3)ccc2c1=O (centres undefined)	-2	-2.0	1.7	-1	-1	-2.2	/	i	0.66
CCc1cc(C(=O)OC)c(NC(=O)CC2SC(N)=NC2=O)s1 (centres undefined)	5	1.6	5.8	5	0	-1.1	/	i	0.72
Cc1cc(C)c(NC(=O)CSc2nc(COc3ccccc3)nc3ccccc23)c(C)c1	-11	0.0	-3.2	9	-4	-3.9	-18%	i	0.74
O=C(O/N=C\c1ccc(N2CCOCC2)c([N+](=O)[O-])c1)c1ccccc1Cl	-10	/	-3.4	/	/	/	24%	/	/
CCc1nnc(SCc2ccc(OC(C)C)cc2)n1N	0	/	0.7	/	/	/	6%	/	0.73
COc1ccc(CCNC(=O)c2cc([N+](=O)[O-])ccc2N2CCOCC2)cc1	15	1.0	1.5	8	-4	-0.7	0%	i	0.71
CC(C)C#Cc1cnc2c(c1)C(=O)N([C@@H](C)CO)C[C@@H](C)[C@@H](CN(C)Cc1ccccn1)O2	/	-3.8	/	1	14	-0.8	/	i	/
COc1ccc(CCNC(=O)c2ccncc2)cc1OC	0	/	-0.1	/	/	/	2%	/	0.7
O=C(NCCCN1CCOCC1)c1cc2c([nH]c3ccccc32)c(-c2cccc(Br)c2)n1	-13	10	-10	/	/	/	/	i	0.71
O=C(O)/C=C/C(=O)NNC(=O)c1cc(-c2ccccc2)n[nH]1	4	0.9	-4.1	-11	-7	-2.9	24%	i	0.66
Cc1ccc(NC(=O)c2cnccn2)c(OC(F)F)c1	1	/	2.8	/	/	/	2%	/	0.72
O=C(Cn1cc([N+](=O)[O-])ccc1=O)N1CCCc2ccccc21	35	0.1	-3.5	7	7	1.5	1%	i	0.71

High-throughput results deposited in PubChem by several laboratories.

Some of the compounds tested; count on the stated rates, not on these rows.
